# RanGTP-Imp inh = inhibitors of RanGTP-importin-beta interaction, primary screen, biochemical, FRET, CFP-Ran, YFP-importin-beta, homogeneous; 1.1% of 300,000 active; inhibition, % (test concentration not listed); Ran GTPase (GTP-bound) - importin-beta complex; cell-free CFP-Ran/YFP-importin-beta FRET ratio;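 active = most replicates above 15%; inconclusive = exactly half above 15%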;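 also: 0% = DMSO wells and 100% = Ran loaded with GDP instead of GTP; wells of about 40 µL received 100 nL stock; the first replicate is given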
# T cruzi inh = inhibitors of intracellular T. cruzi growth, primary screen, luminescence, NIH3T3 host cells; T. cruzi beta-gal in NIH3T3, 90 h; inhibition, % (test concentration not listed); 1.4% of 300,000 active; AID 1885, 2009;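 active = mean inhibition across valid replicates above about 55%, limit read from the data; inconclusive = mean below that limit but half or more replicates reach it; inactive = mean below it, under half of replicates reach it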;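 also: signal also drops with host cell toxicity which is not excluded here; 0% = plate median of DMSO wells and 100% = zero luminescence signal; higher percent means less beta-gal luminescence so fewer parasites; stock transfer was 50 nL into about 50 µL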
# rRNA inh HTS = reduced GFP signal of wild-type E. coli, primary screen, bacterial rRNA inhibitor project, GFP/RFP fluorescence, OD600, single point; AID 720706, 2013; GFP signal change (wild-type ribosome), % (test concentration not listed); 1.6% of 350,000 active; E. coli WT GFP vs humanized-ribosome RFP mutants, 24 h; hits give low values; DMSO median 0, no signal -100;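 active = significant combined selectivity score with lowered wild-type GFP, culture density cut under 30%, mutant RFP and density less affected; inactive = any of these conditions unmet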; also: one replicate is shown; some compounds called inactive have numbers as strong as hits
# MLL AF4-AF9 inh = inhibitors of AF4 peptide binding to AF9, primary screen, biochemical, AlphaScreen, biotin-AF4 peptide, FLAG-AF9, single point; Protein AF-9 (Homo sapiens), P42568; inhibition, % at 10 µM; 0.47% of 350,000 active;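 active = every replicate reaching a set inhibition limit, whatever the replicate mean, cut at about 25% in these data; inconclusive = mean inhibition reaches that limit but some replicates miss it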;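 also: 0% = plate neutral control median and 100% = total signal loss; the record names both 10 and 1 µM as test concentration; the first replicate is given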
# Target sequence (P42568 whole entry, looked up): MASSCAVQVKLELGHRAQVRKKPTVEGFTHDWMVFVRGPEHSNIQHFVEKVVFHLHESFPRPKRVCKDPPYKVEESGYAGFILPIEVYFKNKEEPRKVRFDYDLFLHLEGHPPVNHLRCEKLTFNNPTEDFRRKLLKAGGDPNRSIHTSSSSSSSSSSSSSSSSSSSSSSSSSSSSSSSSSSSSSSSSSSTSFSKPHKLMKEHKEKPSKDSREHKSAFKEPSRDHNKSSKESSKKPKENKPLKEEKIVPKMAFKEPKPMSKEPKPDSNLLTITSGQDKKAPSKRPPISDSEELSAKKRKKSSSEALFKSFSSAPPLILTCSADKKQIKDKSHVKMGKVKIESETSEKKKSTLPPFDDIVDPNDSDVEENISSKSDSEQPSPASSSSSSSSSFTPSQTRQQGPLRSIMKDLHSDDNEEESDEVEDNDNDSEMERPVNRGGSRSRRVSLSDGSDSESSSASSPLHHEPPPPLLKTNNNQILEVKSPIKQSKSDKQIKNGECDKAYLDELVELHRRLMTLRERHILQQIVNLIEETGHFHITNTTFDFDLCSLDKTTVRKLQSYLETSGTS
# Vif A3G = inhibitors of Vif binding to APOBEC3G peptide, primary screen, biochemical, TR-FRET, GST-Vif 1-94, biotin-A3G peptide, dose response retest (AID 1117319); Virion infectivity factor (Human immunodeficiency virus type 1 group M subtype B (isolate …; one-dose inhibition, %; IC50 in µM for titrated hits; 0.57% of 260,000 active; TR-FRET GST-Vif / biotin-A3G peptide binding; higher % means a stronger effect; test concentration not given here; strong numbers were not always called active;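 active = above the screen mean plus three standard deviations and confirmed in dose response; inconclusive = results disagree or hit not tested in dose response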;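 also: Vif residues 1-94 fused to GST binding biotinylated APOBEC3G peptide 110-148; 0% = full assay without inhibitor and 100% = GST in place of GST-Vif; retest series ran down from 100 µM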
# Beta apoptosis = inhibitors of cytokine-induced beta cell apoptosis, primary screen, luminescence; 0.8% of 300,000 active; AID 435005, 2010; INS-1E cytokine-induced death, ATP luminescence, 48 h; percent of positive-control rescue, neutral wells zero; protection from apoptosis, % (concentration not given with the values);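 active = all replicates at 75% or more, or half of them and the mean; inconclusive = half reach 75% but not the mean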;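 also: 0% = cytokine-treated negative control wells and 100% = positive control rescue; higher means more ATP so stronger rescue from cytokine killing; wells of about 40 µL received 100 nL stock; the first replicate is given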
# Bfl-1 A1 inh = caspase 3/7 activation in MEF A1-2A-BIM cells, primary screen, A1 inhibitor project, cell-based, luminescence, HTS. Caspase-Glo 3/7 luminescence, 3 h; percent of clofoctol response, vehicle zero. caspase activation, % (no concentration beside the values). 0.066% of 330,000 active. AID 2462, 2010;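 active = over half of replicate activation scores above 10%, or exactly half above 10 with the replicate mean above 10; inconclusive = replicate mean below 10 yet half the replicates above 10; inactive = over half of replicates below 10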;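 also: wells of about 30 µL received 50 nL stock; many hits fall short of the cut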
# Calb FLC = C. albicans growth inhibition with fluconazole, primary screen, CaCi-2 strain, Alamar Blue fluorescence; C. albicans CaCi-2 (fluconazole-resistant clinical isolate) + fluconazole, 48 h; growth inhibition, % (concentration not given with the values); 0.57% of 300,000 active;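 active = most replicates above 75%; inconclusive = exactly half above 75%; inactive = most below 75%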;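 also: all wells also contain fluconazole at 8 µg/ml as a sub-toxic cotreatment; 0% = median of DMSO wells and 100% = median of geldanamycin control wells; wells of about 8 µL received 7.5 nL stock; the first replicate is given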
# rRNA inh HTS OD600 = also measured in rRNA inh HTS; calls as there; OD600 change, %; measured here: OD600 growth;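 optical density of the mix in the first replicate; 0 = DMSO median and -100 = no signal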
# rRNA inh HTS RFP = recorded beside rRNA inh HTS, whose call it bears; RFP signal change, %; measured here: RFP humanized mutant strains;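 first replicate; 0 = DMSO median and -100 = no signal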
# Starred values were filed as active, the others as inactive; ? = inconclusive; . = no result given; & = joins results of further samples. Some of the compounds tested, so the mix of outcomes need not match the whole.
SMILES,RanGTP-Imp inh,T cruzi inh,rRNA inh HTS,rRNA inh HTS OD600,rRNA inh HTS RFP,MLL AF4-AF9 inh,Vif A3G,Beta apoptosis,Bfl-1 A1 inh,Calb FLC
COc1ccc2c(=O)c3c(=O)n(Cc4ccco4)c(-c4ccccc4)nc3oc2c1,5.2,17,.,.,.,.,-5%,13,0.5,5
CC(C)(C)C1CCC(=O)N(CCOc2ccccc2)CC1 (stereo unspecified),2.1,4,-40,-53,-25,-0.8,.,10,0.8,4
Cc1c(NC(=O)C(C)OC(=O)COc2cccc3c2OC(C)(C)C3)c(=O)n(-c2ccccc2)n1C (stereo unspecified),-3.0,-8,.,.,.,.,0%,-4,0.6,-2
O=C(COC(=O)/C=C/c1cccs1)Nc1ccc(F)cc1,.,.,5,6,-0.1,-13,.,0,0.5,.
Cc1onc(-c2ccccc2Cl)c1C(=O)NCC(=O)O,-1.8,-4,.,.,.,.,27%,-5,1.0,-4
CCCCC(=O)Nc1cccc(NC(=O)c2ccc(Br)cc2)c1,-1.8,4,.,.,.,.,-2%,-7,-0.9,3
CC(=O)c1cccc(S(=O)(=O)N2CCC(C(=O)N(C)Cc3ccc(Cl)s3)CC2)c1,.,.,0,-16,2.7,2.1,.,1,0.7,.
O=C(COC(=O)/C=C/c1ccccc1F)Nc1nnc(-c2ccccc2)o1,-2.5,-6,2,3,-0.1,1.9,4%,-6,0.4,48
COc1c(O)cccc1-c1nnn(CCC(=O)OCC(=O)c2ccccc2)n1,-2.0,9,.,.,.,.,3%,.,-1.6,-2
CN(C)/C=C(\C#N)C(N)=C(C#N)C#N,4.5,-19,12,10,1.3,-0.4,.,.,-0.6,-19
O=C(CSc1nnc(-c2ccccc2F)n1C1CCCCC1)N1CCCC1,1.4,9,.,.,.,.,-2%,.,0.8,-1
O=C(CCCOc1ccccc1)Nc1cccc(C(=O)O)c1,8.1,-14,.,.,.,.,4%,-1,-0.2,2
O=C(COC(=O)/C=C/c1cccs1)Nc1nc(-c2cccc(Br)c2)cs1,-1.3,1,0,-1,5.4,-28,1%,-2,-0.1,-7
Cc1cc(C(=O)N/N=C/C=C/c2ccc3c(c2)OCO3)n[nH]1,-1.0,-14,.,.,.,.,8%,.,-0.2,-13
CC(=O)NCCCNS(=O)(=O)c1ccc(C)cc1,?,-7,15,17,3.4,-0.9,17%,-1,0.9,-9
COCCNC(=O)Nc1ccc2c(c1)N(C)C(=O)CS2,-0.7,-11,.,.,.,.,0%,0,-0.1,-4
CC(=O)C[C@@H](O)CC(=O)[C@H]1OC(=O)CCCCCCc2ccccc21,.,.,-13,-8,7.9,-4.5,.,-7,1.3,.
CCc1ccccc1NC(=O)C(C#N)Cc1cccnc1 (stereo unspecified),-2.5,-7,.,.,.,.,?,.,0.1,6
CCOC(=O)NC(Nc1ccc(C)cn1)(C(F)(F)F)C(F)(F)F,1.3,-7,.,.,.,.,2%,-8,0.9,5
CC(C)(C)[C@H]1COC(=O)[C@H](NC(=O)OCC2c3ccccc3-c3ccccc32)C/C=C\C[C@@H](CC(=O)N(CCO)Cc2ccccc2)C(=O)N1,.,.,5,0,-6.3,0.4,.,34,-0.2,.
CCOC(=O)N1CCN(S(=O)(=O)c2ccc3c(c2)oc(=O)n3C)CC1,-0.3,-7,.,.,.,.,1%&-3%,-1,0.6,-2
Cc1ccc(S(=O)(=O)N2[C@@H](c3ccc(C#N)cc3)C(C(=O)O)=C[C@H]2C(C)(C)C)cc1,.,.,-11,-25,-1.2,-1.6,8%,-8,-0.2,.
CC1(C)CCCC2=C1CC1C(=O)N(O)C(=O)C1C2 (stereo unspecified),?,-4,.,.,.,.,-7%,-2,-0.2,5
Cn1c(CCN2CCN(c3ccccn3)CC2)nc2cc(NC(=O)COc3ccc([N+](=O)[O-])cc3)ccc21,-0.5,11,10,17,0.8,-1.8,.,2,-0.4,11
Cc1cc([N+](=O)[O-])ccc1NC(=O)/C=C/c1cccs1,1.4,-4,.,.,.,.,16%,2,1.3,20
COC(=O)c1c(C(=O)OC)c2cc(C(=O)c3ccccc3)ccn2c1Cl,29*,18,.,.,.,.,6%,.,-0.5,32
CC(=O)c1cnn(-c2ccc(Cl)cc2)c1C,2.3,-5,2,-3,-3.9,-1.1,-6%,3,0.4,10
O=C(COC(=O)c1ccc2ncsc2c1)Nc1ccccc1Br,.,.,5,10,2.5,-0.4,-1%,-1,0.2,.
COc1ccccc1N1CCN(C(=O)Cn2c(=O)oc3cc(S(=O)(=O)N4CCCC4)ccc32)CC1,6.4,-5,-5,-24,-1.4,-4.5,.,-1,0.2,-3
CCN(CC)S(=O)(=O)c1ccc(C(=O)NCC(=O)NCCCc2ccccc2)cc1,0.8,11,-2,-13,1.1,-1.4,.,.,.,-3
CCc1ccc(-c2cc(C(=O)NN3CCOCC3)c3ccccc3n2)s1,?,-12,2,3,0.0,-1.0,.,4,-0.1,-3
Cc1nn(Cc2ccccc2)c(C)c1NC(=O)CCCn1nc([N+](=O)[O-])cc1C,-1.5,16,4,5,0.5,0.2,4%,-9,-0.1,0
CNCC(=O)Nc1ccc(OC(F)(F)F)cc1,?,-11,13,8,0.8,-1.4,12%,-6,0.1,-11
COc1ccc(C(C(=O)NC2CCCC2)N(Cc2cccnc2)C(=O)c2snc(C(N)=O)c2N)cc1OC (stereo unspecified),-5.2,-6,6,3,-0.1,2.0,-1%,0,0.5,-9
COc1ccccc1C(=O)Nc1ccc(C(=O)N2CCCC2)cc1,-0.1,-9,.,.,.,.,-1%,0,-5.0,-3
O=C(Nc1ccc(C(F)(F)F)cc1Cl)c1ccc(Cn2cc(Br)cn2)o1,1.1,25,-37,-42,-10,1.8,-7%,-5,0.2,0
CC(C)NC(=O)c1cc(-c2ccc(Br)cc2)on1,5.5,1,.,.,.,.,?,1,-1.3,-3
O=C(c1ccccc1)c1ccc(C(=O)N2CCN(c3ccccc3Cl)CC2)cc1,.,.,-18,-33,-7.1,-2.2,0%,-3,-0.5,.
Cc1ccc(Nc2cc(-n3nc(C)cc3C)ncn2)c(C)c1,-2.7,23,.,.,.,.,6%,12,-1.0,0
CCN(CC)C(=O)c1csc(Nc2cccc3ccccc23)n1,-1.5,-6,-27,-35,-2.1,3.1,.,-2,1.5,27
COc1ccc(OC)c(NC(=O)c2cccc(N3C(=O)C4C5C=CC(C6CC56)C4C3=O)c2)c1 (stereo unspecified),-3.2,6,2,2,1.6,1.0,.,22,-0.4,16
CCOC(=O)c1ccc(N2C(=O)C(CC(=O)NC)N(CCc3ccc(OC)c(OC)c3)C2=S)cc1 (stereo unspecified),0.2,1,.,.,.,-1.9,2%,4,1.9,4
COc1ccc(C)cc1NC(=O)NC(C)c1ccc2c(c1)OCO2 (stereo unspecified),?,-10,4,10,-1.5,-0.8,.,-2,1.0,-16
COc1ccccc1CNC(=O)c1cc(C)nc2ccccc12,-0.7,-1,2,5,1.5,1.9,.,-4,0.9,1
COc1ccc(C(=O)N2C(=O)c3ccc(N)cc3C2=O)cc1,12,-15,5,7,2.2,-3.0,-14%,8,-3.1,-12
CCc1ccc(NC(=O)CSc2nc(NS(=O)(=O)c3ccccc3)cc(=O)[nH]2)cc1,6.6,-50,6,8,2.4,-0.3,5%,.,.,2
O=C(c1ccco1)N1CCN(C(=O)C2CCCN(S(=O)(=O)c3cccc4nsnc34)C2)CC1 (stereo unspecified),7.3,4,.,.,.,.,0%,-4,1.1,21
Cc1cc(C)n(S(=O)(=O)c2cc(C(=O)O)c(Cl)cc2Cl)n1,-3.6,-7,13,15,-1.5,-25,.,-8,-0.2,13
O=C(NCC1CCCO1)c1cc2cc(F)ccc2[nH]1 (stereo unspecified),1.9,-8,4,21,-0.2,0.2,-5%,1,-0.9,-1
COc1ccc(C/C(N)=N/OC(=O)c2cccs2)cc1,?,4,2,6,5.9,-2.4,28%,-1,0.5,54
COc1ccc(NC(=O)CCn2cc(C)c3ccccc32)cc1,-0.8,-6,.,.,.,.,0%,-1,0.1,10
O=C(N/C(=C/C=C/c1ccccc1)C(=O)N1CCOCC1)c1ccccc1Cl,-1.9,-1,-9,-3,1.9,2.7,-3%,-5,0.2,-8
CCC(CC)=NNC(=O)c1ccccc1OCc1ccc(F)cc1,-4.2,-1,.,.,.,.,.,-5,1.7,4
COc1ccccc1-n1nnnc1SCC(=O)Nc1ccc(C)c(N)c1,6.7,3,4,4,0.6,0.8,.,4,0.2,-1
Cc1ccc(C(C)C)c(OCC(O)CN2CCOCC2)c1 (stereo unspecified),2.9,4,.,.,.,.,7%,-2,-0.4,14
C#CCOCCOCCOCCNc1nc(N2CCOCC2)nc(N2CCN(C(=O)CCCCCCCCCCNC(=O)[C@@H]([C@H](C)O)n3cc(C)nn3)CC2)n1,.,.,-1,1,-5.5,3.0,.,2,0.3,.
Cc1ccc(S(=O)(=O)Oc2ccc(/C=C3/N=C(c4ccccc4)OC3=O)cc2)cc1,-2.2,-3,-26,-25,-8.6,4.4,?,-3,0.3,-4
CCOC(=O)C1(CC2CC2)CCN(S(=O)(=O)/C=C/c2ccccc2)CC1,4.7,3,-14,-14,-3.6,1.6,2%,-4,-0.1,43
Cc1nn2c(N3CCN(C)CC3)cc(C(C)(C)C)nc2c1-c1ccccc1,-2.6,67*,-45,-61,-9.0,8.2,-3%,0,0.0,36
COc1ccc(C2C(=O)N(C3CCCCC3)CC(=O)N2Cc2ccco2)cc1 (stereo unspecified),4.5,-1,10,9,-0.1,1.6,2%,4,0.6,-20

# Other entries
SMILES,RanGTP-Imp inh,T cruzi inh,rRNA inh HTS,rRNA inh HTS OD600,rRNA inh HTS RFP,MLL AF4-AF9 inh,Vif A3G,Beta apoptosis,Bfl-1 A1 inh,Calb FLC
O=C(Nc1ccc(F)cc1)C1C2CCC3C(CCC21)C3(Cl)Cl (stereo unspecified),-2.0,-15,-46,-50,-9.6,1.0,12%,3,0.3,1
CCc1nnc(NC(=O)COc2ccc3c(c2)OCO3)s1,3.8,4,2,5,5.0,1.4,.,-11,-0.5,-1
O=C(NNC(=O)c1ccc([N+](=O)[O-])cc1)c1ccc(Br)cc1,-2.3,-2,10,19,6.4,-0.9,4%,-3,0.1,-6
Cc1ccc(CNC(=O)CS(=O)(=O)Cc2nc(-c3ccccc3F)oc2C)cc1,-2.6,-15,10,13,1.1,-2.9,.,-1,-0.6,3
Cc1ccc(-c2nc3cnccn3c2Nc2ccc3c(c2)OCO3)o1,-3.0,6,-17*,-23*,0.6*,13,25%,0,-0.4,-1
